AF4-AF9 inh: MLL-AF4/AF9 protein interaction inhibition. AlphaScreen, biotin-AF4 peptide binding to FLAG-AF9. inhibition, % at 10 µM. 350,000 compounds, 0.47% hits. AID 651704;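 active = every replicate reaching a set inhibition limit, whatever the replicate mean, cut at about 25% in these data; inconclusive = mean inhibition reaches that limit but some replicates miss it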;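 also: 0% = plate neutral control median and 100% = total signal loss; the record names both 10 and 1 µM as test concentration; the first replicate is given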
Target sequence (P42568 whole entry, looked up): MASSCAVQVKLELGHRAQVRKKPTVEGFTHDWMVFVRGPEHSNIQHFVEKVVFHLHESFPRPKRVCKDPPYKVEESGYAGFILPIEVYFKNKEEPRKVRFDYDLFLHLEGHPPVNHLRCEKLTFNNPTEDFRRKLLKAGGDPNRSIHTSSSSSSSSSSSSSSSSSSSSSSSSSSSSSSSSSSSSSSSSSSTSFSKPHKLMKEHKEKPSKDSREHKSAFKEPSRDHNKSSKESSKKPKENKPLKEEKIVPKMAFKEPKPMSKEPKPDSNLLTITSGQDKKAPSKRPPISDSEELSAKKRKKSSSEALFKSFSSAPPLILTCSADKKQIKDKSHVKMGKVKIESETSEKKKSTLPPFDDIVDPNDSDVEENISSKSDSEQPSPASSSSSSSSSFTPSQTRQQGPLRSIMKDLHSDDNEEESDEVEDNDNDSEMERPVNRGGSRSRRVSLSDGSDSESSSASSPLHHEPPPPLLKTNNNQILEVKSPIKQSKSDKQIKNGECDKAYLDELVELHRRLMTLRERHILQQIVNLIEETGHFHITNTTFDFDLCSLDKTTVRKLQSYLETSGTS
A1 inh: inhibitors of the anti-apoptotic protein A1, read as caspase activation; MEF A1-2A-BIM cells, Caspase-Glo 3/7 luminescence, 3 h; percent of clofoctol response, vehicle zero; caspase activation, % (test concentration not listed); 330,000 compounds, 0.066% hits; AID 2462;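 active = over half of replicate activation scores above 10%, or exactly half above 10 with the replicate mean above 10; inconclusive = replicate mean below 10 yet half the replicates above 10; inactive = over half of replicates below 10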;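 also: wells of about 30 µL received 50 nL stock; many hits fall short of the cut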
LANA-H2B inh: blocks KSHV LANA binding to histone H2A/H2B; Q9QR71; cell-free LANA-H2A/H2B peptide, fluorescence polarization; inhibition, % (concentration not given with the values); 320,000 compounds, 0.6% hits; AID 2629; in the data active = inhibition mostly above about 10%, no sharp cut-off; inactive = mostly below about 6.7%;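 also: stock transfer was 7.5 nL into about 10 µL; 0% = median of vehicle wells and 100% = median of positive control wells; one replicate is shown; the record names a cut of 25% in any replicate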
Calb FLC: C. albicans growth modulation with fluconazole; C. albicans CaCi-2 (fluconazole-resistant clinical isolate) + fluconazole, Alamar Blue growth, 48 h; growth inhibition, % (test concentration not listed); 300,000 compounds, 0.57% hits; AID 1979;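 active = most replicates above 75%; inconclusive = exactly half above 75%; inactive = most below 75%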;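 also: all wells also contain fluconazole at 8 µg/ml as a sub-toxic cotreatment; 0% = median of DMSO wells and 100% = median of geldanamycin control wells; wells of about 8 µL received 7.5 nL stock; the first replicate is given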
Beta apoptosis: beta cell apoptosis inhibition; INS-1E cytokine-induced death, ATP luminescence, 48 h; percent of positive-control rescue, neutral wells zero; protection from apoptosis, % (no concentration beside the values); 300,000 compounds, 0.8% hits;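 active = all replicates at 75% or more, or half of them and the mean; inconclusive = half reach 75% but not the mean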;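 also: 0% = cytokine-treated negative control wells and 100% = positive control rescue; higher means more ATP so stronger rescue from cytokine killing; wells of about 40 µL received 100 nL stock; the first replicate is given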
T cruzi repl: T. cruzi replication inhibition; T. cruzi beta-gal in NIH3T3, luminescence, 90 h; inhibition, % (no concentration beside the values); 300,000 compounds, 1.4% hits;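 active = mean inhibition across valid replicates above about 55%, limit read from the data; inconclusive = mean below that limit but half or more replicates reach it; inactive = mean below it, under half of replicates reach it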;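 also: signal also drops with host cell toxicity which is not excluded here; 0% = plate median of DMSO wells and 100% = zero luminescence signal; higher percent means less beta-gal luminescence so fewer parasites; stock transfer was 50 nL into about 50 µL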
RanGTP-Imp inh: inhibitors of RanGTP-importin-beta interaction, primary screen, biochemical, FRET, CFP-Ran, YFP-importin-beta, homogeneous | cell-free CFP-Ran/YFP-importin-beta FRET ratio | inhibition, % (test concentration not listed) | 300,000 compounds, 1.1% hits;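 active = most replicates above 15%; inconclusive = exactly half above 15%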;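 also: 0% = DMSO wells and 100% = Ran loaded with GDP instead of GTP; wells of about 40 µL received 100 nL stock; the first replicate is given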
Vif TR-FRET: HIV-1 Vif–A3G interaction blockers – biochemical, TR-FRET, GST-Vif 1-94, biotin-A3G peptide, dose response retest, primary screen (AID 1117319) | TR-FRET GST-Vif / biotin-A3G peptide binding; higher % means a stronger effect; test concentration not given here; strong numbers were not always called active | one-dose inhibition, %; IC50 in µM for titrated hits | 260,000 compounds, 0.57% hits;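 active = above the screen mean plus three standard deviations and confirmed in dose response; inconclusive = results disagree or hit not tested in dose response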;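 also: Vif residues 1-94 fused to GST binding biotinylated APOBEC3G peptide 110-148; 0% = full assay without inhibitor and 100% = GST in place of GST-Vif; retest series ran down from 100 µM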
An asterisk follows results filed as active; u = inconclusive; x = no result given; & = joins results of further samples.

SMILES	Calb FLC	AF4-AF9 inh	LANA-H2B inh	Vif TR-FRET	A1 inh	T cruzi repl	Beta apoptosis	RanGTP-Imp inh
Cc1cc2oc3cc(NCCC4CCCN4C)ccc3c(=O)c2cc1C (stereo not given)	6	0.2	0.2	x	-2.0	39	11	31*
CCCCCC(=O)N1CCN(S(=O)(=O)c2ccc3c(c2)OCCCO3)CC1	-2	4.3	-2.1	-4%	-0.4	-5	0	1.4
Cc1cc(NC(=O)CSc2nccn2C)no1	21	-1.8	-6.8	5%	0.6	-8	-2	3.6
O=C(CSc1nc2c(cnn2-c2ccccc2)c(=O)[nH]1)c1ccc(Cl)cc1	59	2.0	-1.0	-7%	0.1	15	8	0.8
O=C(NCCN1CCNC1=O)C1CCC(=O)N(CCc2ccccc2)C1 (stereo not given)	-5	-2.2	2.4	x	1.8	-20	-4	-0.3
O=C(CSc1nccn(-c2ccc3c(c2)OCCO3)c1=O)Nc1ccccc1	14	-7.9	x	0%	-0.4	-11	-33	1.1
Cc1cc(N2CCN(C(=O)c3ccco3)CC2)n2nc(C)nc2n1	8	-2.3	1.0	-8%	0.4	-2	-2	5.4
Cc1cc(Cl)n2ncc(-c3ccccc3)c2n1	28	3.1	2.6	4%	-0.4	-19	-8	5.1
CCn1c2ccccc2c2cc(NC(=O)c3ccccc3-c3ccccc3C(=O)O)ccc21	x	-0.2	5.9	-6%	0.7	-8	-1	2.4
CCN(CC)S(=O)(=O)c1ccc2[nH]c(=O)cc(C(=O)NCC(c3ccco3)N3CCCC3)c2c1 (stereo not given)	3	1.3	5.0	3%	0.2	2	0	2.2
O=C1CC(Cc2ccccc2)C(=O)N1CCc1ccc2c(c1)OCO2 (stereo not given)	-48	x	0.9	5%	0.3	7	2	-0.6
O=C1c2ccc(-c3ccc(Cl)c(C(F)(F)F)c3)cc2S(=O)(=O)c2cccc(C(=O)N3CCN(c4ccc(Cl)cn4)CC3)c21	x	2.1	0.8	x	-1.3	x	-3	x
CCn1c(SCC(=O)O)nnc1-c1ccccc1OC	-1	0.7	-2.4	-8%	-0.1	-7	8	2.7
CC(C)c1ccc(S(=O)(=O)N2CCN(C(=O)CN3C(=O)NC(C)(c4ccccc4)C3=O)CC2)cc1 (stereo not given)	3	-0.4	-3.9	0%	0.2	4	-2	0.8
C[C@H](CCC(=O)O)[C@H]1CC[C@H]2[C@@H]3CC[C@@H]4C[C@H](O)CC[C@]4(C)[C@H]3C[C@H](O)[C@]12C	1	-5.8&-5.8&-4.8&-6.3	5.5	x	0.3	-7	0	2.0
CC1(OC(=O)CCc2ccccc2)C(=O)C=C2C=C(c3ccc(C#N)cc3)N(c3ccccc3)C=C2C1=O (stereo not given)	28	-4.2	9.4	u	1.3	6	0	0.7
O=C(Cn1nnc(-c2cccs2)n1)OC1CCCCC1	-17	x	-4.1	-2%	-0.3	-7	-9	-0.7
NNC(=O)CN1C(c2ccc(Cl)cc2)=Nc2ccc(Br)cc2C1c1ccccc1 (stereo not given)	u	x	-0.5	-4%	-0.3	36	-5	-3.1
O=C(Nc1ncccn1)c1cccc(Cl)c1	-15	-0.7	-1.3	x	-0.8	-10	x	0.1
Cc1ccc(NCc2nnc(SCC(=O)NCCc3ccccc3)n2C)cc1	-2	1.9	x	-8%&18%	x	4	x	u
CCn1cc(C(=O)OCC(=O)Nc2cccc(S(=O)(=O)N3CCOCC3)c2)c(=O)c2ccc(C)nc21	2	x	-1.3	27%	0.2	6	3	1.9
Cc1cc(NC(=O)CSc2nc3c(c(=O)n2-c2ccc(Cl)cc2)SCC3)no1	-3	x	3.0	x	-0.2	14	0	0.2
COCc1ccc(CN2CCCC(C(=O)Nc3ccccc3-c3ccc(OC)cc3)C2)o1 (stereo not given)	20	4.1	1.0	-4%	-0.6	22	-5	5.8
CC(C)Cn1c(=O)c2ccccc2n2c(CCC(=O)NC3CCN(Cc4ccccc4)CC3)nnc12	-10	-5.1	-0.2	x	-0.1	29	9	-1.8
Cc1nnc(NC(=O)c2oc3ccccc3c2C)s1	0	0.2	-1.5	1%	-2.4	10	1	-4.1
Fc1ccc(OCc2nc(-c3ccncc3)n[nH]2)cc1	-12	-0.5	-6.6	x	0.4	-10	x	3.6
COc1ccccc1Nc1ccc2nonc2c1[N+](=O)[O-]	4	-15	-3.2	x	0.2	-13	0	2.4
COCCN(C(=O)CSc1nc2ccccc2o1)c1c(N)n(Cc2ccccc2)c(=O)[nH]c1=O	x	-3.3	0.9	-14%	0.1	x	-4	x
COC(=O)c1ccc(CNC(=O)c2ccc(S(=O)(=O)N3CCCCCC3)cc2)cc1	x	0.9	-0.1	-5%	0.1	x	5	x
COc1cccc(OCCCn2ccnc2)c1	-1	2.8	0.8	x	1.6	2	-4	8.5
COc1ccc(N(CC(=O)NCc2ccccc2Cl)S(=O)(=O)c2c(C)noc2C)cc1	2	-8.8	-0.3	x	-0.4	13	1	1.4
N=c1ccn(Cc2ccccc2Cl)cc1	-4	x	-2.0	u	0.2	-8	x	1.1
O=C(c1ccc(Cl)cc1[N+](=O)[O-])N1CCOCC1	-4	-0.8	2.1	x	0.7	-1	3	0.7
O=C(Nc1ccc(S(=O)(=O)Nc2nccs2)cc1)C1CC(=O)N(c2ccccc2)C1 (stereo not given)	2	x	-0.9	-6%	2.2	2	-5	u
CCc1nnc(NC(=O)CN2CCN(C3CCCCC3)CC2)s1	9	x	0.2	5%	0.4	26	-1	3.4
COC(=O)C(O)(NC(=O)c1ccncc1)C(F)(F)F (stereo not given)	-13	-0.8	2.5	0%	-0.5	5	-13	5.3
CCOC(=O)C(=O)Nc1ccc(OC)c(Cl)c1	-1	-13	-0.7	-1%	-0.4	-6	-6	1.6
CCCCc1nc(NCC2CCCO2)c(C#N)c2c1COC(C)(C)C2 (stereo not given)	5	x	0.6	19%	0.4	25	1	-3.6
CNC(=S)NC1(C)CCS(=O)(=O)C1 (stereo not given)	-4	-2.9	0.7	-5%	3.3	-9	2	3.1
CS(=O)c1ccccc1COC(=O)Nc1ccc(Cl)cc1 (stereo not given)	-12	x	0.5	-3%	0.9	29	3	4.2
O=C(Nc1ccc(Oc2ccccc2)nc1)C1CCN(Cc2ccccc2)CC1	-4	2.3	-6.0	x	-0.1	-6	-1	-1.2
Cn1c(CNC(=O)Nc2cccc(Cl)c2)nnc1SCc1ccccc1	-7	x	0.4	0%	1.0	-2	-10	-0.5
CCC(=O)Nc1cccc(NC(=O)c2cccnc2)c1	0	x	2.3	-2%	0.6	3	-3	-3.2
COc1cc(NC(=O)C2CC(c3cccc(Br)c3)=NO2)cc(OC)c1OC (stereo not given)	18	-0.1	-4.6	6%	-0.5	10	-3	-3.5
COC(=O)N1N=C(c2ccccc2)CC1(O)C(F)(F)F (stereo not given)	11	-5.9	-12	2%	-5.0	-12	0	1.3
CC(=O)Nc1ccc(Sc2ncccc2C(=O)Nc2ccc(F)cc2)cn1	13	7.5	-1.4	-21%	-0.8	-13	2	-1.2
CCOC(CCNC(=O)CCC(=O)Nc1ccc2nc(N3CCN(C)CC3)cc(C)c2c1)OCC	4	-9.5	5.0	-1%	2.6	25	2	1.5
CC(=O)c1ccccc1OC(=O)c1ccc(-c2ccccc2)cc1	-1	-1.8	-0.4	x	-0.5	-20	x	-1.2
COc1cc2c(cc1OC)-c1cc(Nc3ccccc3)nc(=O)n1CC2	-3	-0.5	1.9	u	-0.2	4	x	-1.0
NC(=O)CN1C(=O)C(O)(CC(=O)/C=C\C=C\c2ccccc2)c2ccccc21 (stereo not given)	4	x	x	9%	-0.5	-30	-1	0.7

(further entries)
SMILES	Calb FLC	AF4-AF9 inh	LANA-H2B inh	Vif TR-FRET	A1 inh	T cruzi repl	Beta apoptosis	RanGTP-Imp inh
CCOC(=O)c1cnc(-c2ccc(C(F)(F)F)cn2)[nH]c1=O	16	-2.3	-0.8	5%	0.7	-9	-3	8.9
COc1cccc(C(=O)Nc2c(C(N)=O)oc3ccccc23)c1	1	-1.2	0.6	1%	0.0	-3	-9	-2.1
CCc1ccccc1NC(=O)Cn1nc(C)n2cccc2c1=O	-8	1.2	-8.7	x	0.2	-7	-2	5.2
COc1ccc(-c2cc(C(=O)Nc3cc(C)nn3-c3ccccc3)no2)cc1OC	1	-0.6	1.8	7%	0.5	10	2	0.0
COc1ccc(S(=O)(=O)NC(C)C(=O)NCc2ccc3c(c2)OCO3)cc1OC (stereo not given)	-4	0.4	1.2	-8%	-0.2	-5	0	1.0
C=CCC1=C/C(=C\c2c(N)n3nc(CC(=O)N4CCOCC4)sc3nc2=O)C=C(OC)C1=O	x	1.3	-16	x	0.1	5	1	4.0
Cc1ccccc1OCCn1cc(C(=O)C(=O)N2CCOCC2)c2ccccc21	-29	-0.4	5.5	2%	0.6	20	-1	0.2
O=C(NNC(=O)c1ccc(SCC2CCCO2)c([N+](=O)[O-])c1)c1ccc(F)cc1 (stereo not given)	-5	x	-2.2	u	1.0	-17	3	4.6
CCOc1cc(-c2ccc(N)c(OCC)c2)ccc1N	0	x	8.2	6%	-0.7	13	4	-1.4
COc1ccccc1N(CC(=O)NCC1CCCO1)C(=O)CNS(=O)(=O)c1ccc(Cl)cc1 (stereo not given)	4	-6.1	-8.1	x	0.8	3	-2	0.0
COc1ccc(-n2nc(C(=O)NCC(=O)N3CCCCCC3)c3ccccc3c2=O)cc1OC	14	-2.5	2.3	x	-0.3	7	6	-16
CCOc1cc(C(=O)OC(C)C(=O)Nc2ccc(S(N)(=O)=O)cc2)ccc1OCC(=O)N1CCOCC1 (stereo not given)	3	-3.6	-2.9	-4%	-0.1	-7	-11	0.6
O=C(Nc1ccncc1)c1ccc(Cl)c(S(=O)(=O)N2CCc3ccccc32)c1	31	1.9	-3.4	-4%	-0.7	11	x	1.4
O=C(NC1CCCCC1)c1cccnc1Sc1ccccc1	-26	-1.2	6.6	x	-0.3	-8	-3	-2.2
Cc1ccc(-c2noc(CCC(=O)Nc3ccc4c(c3)OCO4)n2)cc1	-14	x	-2.9	6%	0.4	12	2	-0.2
COc1ccc(C2=NS(=O)(=O)N(C)C(C(=O)Nc3ccc(C)cc3)=C2)cc1	-5	4.5	2.0	x	1.1	-3	-2	0.9
Cc1cc(=O)n2nc(N3CCCC3C(=O)Nc3ccc(C(C)C)cc3)sc2n1 (stereo not given)	0	1.8	-2.9	x	-0.6	11	0	7.2
O=C(CN1C(=O)c2ccccc2S1(=O)=O)Nc1ccc(S(=O)(=O)N2CCCCC2)cc1	-4	x	1.7	-3%	0.5	-9	-6	6.7
CCOc1ccccc1NC(=O)CN1c2cccc3cccc(c23)S1(=O)=O	x	-1.5	-0.7	2%	0.7	x	-6	x
COc1ccc(NC(=O)c2oc3ccccc3c2NC(=O)C2CC2)c(OC)c1	-6	-2.0	0.4	u	2.1	0	6	7.9
CCOC(=O)c1c(NC(=O)CSc2nc3ccc(C)cc3[nH]2)sc2c1CC(C)(C)NC2(C)C	-4	14	-5.7	0%	0.1	61*	-5	x
